# Screening data: PubChem, Broad Institute
# ID4 binder – binds human ID4 protein on microarray. P47928. calls only. small molecule microarray, Flag-ID4 binding, fluorescence F/B. AID 624137. 1.2% of 31,000 active;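 active = spot signal over background at p below 0.07 in all four prints; compounds were printed on slides so no solution concentration is given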;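 also: a binder raises fluorescence above local background on the spot; about 2 pmol printed per array spot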
# Target sequence (P47928 whole entry, looked up): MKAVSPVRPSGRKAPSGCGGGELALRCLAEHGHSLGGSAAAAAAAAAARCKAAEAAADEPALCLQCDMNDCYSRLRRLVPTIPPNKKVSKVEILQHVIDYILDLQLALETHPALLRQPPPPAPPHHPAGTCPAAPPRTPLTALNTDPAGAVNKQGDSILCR
# Calls only; i = inactive. An excerpt; the hit share may differ from the screen's.
SMILES,ID4 binder
COc1ccccc1NC(=O)N[C@@H]1C=C[C@@H](CC(=O)N[C@@H](C)c2ccccc2)O[C@H]1CO,i
Cc1cc(C)cc(NC(=O)CSC2CC(=O)N(c3ccc(F)cc3)C2=O)c1 (stereo not given),i
Cc1cc(OCC(=O)Nc2cccc(-c3nc4ccccc4o3)c2C)cc(C)c1Cl,i
O=[N+]([O-])c1nn(-c2ccc(Cl)cc2)n(O)c1=NCc1ccccn1,i
COc1cccc(CNC(=O)C[C@H]2C=C[C@@H](NC(C)=O)[C@@H](CO)O2)c1,i
C[C@H]1CN([C@@H](C)CO)C(=O)c2cccc(NC(=O)C3CC3)c2O[C@H]1CN(C)Cc1ccccc1,i
Cc1ccccc1NC(=O)CSc1nnc(-c2ccc([N+](=O)[O-])cc2)n1C,i
Nc1nc(SCC(=O)Nc2ccccc2)[nH]c(=O)c1-c1ccccc1,i
O=C(O)/C=C\C(=O)Nc1ccccc1SCC(O)Cn1ccc(C(F)(F)F)n1 (stereo not given),i
C[C@H]1CN([C@@H](C)CO)C(=O)c2cc(C3=CCCC3)cnc2O[C@H]1CN(C)C(=O)C1CCC1,i
Cc1ccccc1-c1cnc2c(c1)C(=O)N([C@H](C)CO)C[C@H](C)[C@H](CN(C)C(=O)CN(C)C)O2,i
CC(=O)c1cccc(NC(=O)CS(=O)(=O)c2ccccc2)c1,i
Cc1ccc(C(=O)Nc2ccccc2C(=O)NCc2ccco2)cc1[N+](=O)[O-],i
C[C@@H]1CN([C@@H](C)CO)S(=O)(=O)c2ccc(C#CC3CCCC3)cc2O[C@@H]1CN(C)Cc1cncnc1,i
CCc1ccc2[nH]c(C(=O)Nc3ccccc3C(C)CC)cc2c1 (stereo not given),i
O=C1c2ccccc2C(=O)N1CCCc1nc2c3c4c(sc3ncn2n1)CCCCC4,i
COc1cccc(NC(=O)N(C)C[C@H]2Oc3cc(-c4cccc(C(=O)N(C)C)c4)ccc3S(=O)(=O)N([C@H](C)CO)C[C@H]2C)c1,i
COc1ccccc1C#Cc1cnc2c(c1)C(=O)N([C@@H](C)CO)C[C@H](C)[C@H](CN(C)C(=O)CN(C)C)O2,i
O=C(COc1ccc2ccccc2c1Br)Nc1ccccc1C(=O)N1CCCCC1,i
Cc1ccc(-c2cc(C(F)(F)F)n3nc(C(=O)NCCCn4ccnc4)cc3n2)cc1C,i
O=C(CSc1nnnn1-c1ccccc1)Nc1ccc(Br)cc1Cl,i
C[C@@H]1CN([C@H](C)CO)S(=O)(=O)c2ccc(-c3cccnc3)cc2O[C@H]1CN(C)Cc1ccccn1,i
Cc1cccc(-c2nnc(SCC(=O)Nc3cccc(Br)c3)n2C)c1,i
C[C@H]1CN([C@@H](C)CO)S(=O)(=O)c2ccc(-c3ccc(F)cc3)cc2O[C@H]1CN(C)Cc1ccccc1C(=O)O,i
COc1ccccc1NC(=O)N[C@@H]1CC[C@H](CC(=O)N2CCC(Cc3ccccc3)CC2)O[C@@H]1CO,i
CC(C)c1cn(CC[C@@H]2CC[C@@H](NC(=O)c3cccc(F)c3)[C@@H](CO)O2)nn1,i
CCCN(C)C[C@H]1Oc2cc(C#Cc3cccc(F)c3)ccc2S(=O)(=O)N([C@@H](C)CO)C[C@H]1C,i
C[C@@H]1CN([C@@H](C)CO)C(=O)c2cc(-c3cccc(F)c3)cnc2O[C@@H]1CN(C)C(=O)C1CCCCC1,i
CCCNC(=O)N[C@H]1C=C[C@H](CC(=O)N2CCN(C)CC2)O[C@@H]1CO,i
CCn1c(SCC(=O)Nc2ccc(Cl)cc2Cl)nnc1-c1cccc(Cl)c1,i
C[C@H]1CN([C@@H](C)CO)C(=O)c2cc(-c3ccccc3)cnc2O[C@H]1CN(C)C(=O)Cc1ccccc1,i
Cc1c(Cl)cccc1NC(=O)CSc1nc(-c2ccccc2)cs1,i
Cc1cc(=O)[nH]c(SCCOc2cccc(Oc3ccccc3)c2)n1,i
O=C(Cc1ccccc1[N+](=O)[O-])Nc1ccccc1C(=O)NC1CCCCC1,i
C=CCNC(=O)[C@H]1[C@@H]2C(=O)O[C@@H](c3ccccc3)[C@@H](c3ccccc3)N2[C@@H](c2ccc(OCCO)cc2)[C@]12C(=O)Nc1ccc(C#CCC(C(=O)OC)C(=O)OC)cc12,i
Cc1ccc(S(=O)(=O)NC(=O)NC2CCN(c3nccc(C(F)(F)F)n3)CC2)cc1,i
COCC#Cc1ccc2c(c1)O[C@H](CN(C)S(=O)(=O)c1cccc(F)c1)[C@@H](C)CN([C@@H](C)CO)S2(=O)=O,i
O=C1OCc2cc3cccc(O[C@@H]4O[C@H](CO[C@@H]5OC[C@@H](O)[C@H](O)[C@H]5O)[C@@H](O)[C@H](O)[C@H]4O)c3c(O)c21,i
COc1ccccc1NC(=O)N[C@H]1CC[C@@H](CC(=O)NCc2ccc(Cl)c(Cl)c2)O[C@H]1CO,i
C[C@H](CO)N1C[C@H](C)[C@@H](CN(C)CC2CCOCC2)Oc2ncc(C#Cc3ccccc3)cc2C1=O,i
CO[C@@H](CN(C)C(=O)C1CCOCC1)[C@H](C)CN([C@H](C)CO)S(=O)(=O)c1ccccc1,i
CCCN(C)C[C@H]1Oc2cc(C#CC(C)(C)O)ccc2S(=O)(=O)N([C@H](C)CO)C[C@H]1C,i
Cn1nnnc1SCC(=O)c1ccc(O)c(O)c1,i
Cc1cccc(NC(=O)CSc2nnc(-c3ccncc3)n2-c2ccc(C)c(C)c2)c1,i
Cc1ccc2c(C)c(C(=O)Nc3sc4c(c3C(=O)NCC3CCCO3)CCCC4)oc2c1 (stereo not given),i
CCC(=O)N(C)C[C@@H]1Oc2ncc(/C=C/c3ccccc3)cc2C(=O)N([C@H](C)CO)C[C@@H]1C,i
CCC(=O)N(C)C[C@@H]1Oc2ncc(C#CCC3CCCC3)cc2C(=O)N([C@@H](C)CO)C[C@H]1C,i
C[C@@H](NC(=O)C[C@@H]1CC[C@@H](NC(=O)CN2CCOCC2)[C@@H](CO)O1)c1ccccc1,i
COc1ccc(C2=Cc3ccccc3C(C)(C)O2)cc1,i
Cc1noc(C)c1-c1nc(CSc2n[nH]c(=O)n2C2CC2)no1,i

# A portion from further up, for reference:
SMILES,ID4 binder
CO[C@@H](CN(C)C(=O)C1CCOCC1)[C@H](C)CN([C@H](C)CO)S(=O)(=O)c1ccccc1,i
CCCN(C)C[C@H]1Oc2cc(C#CC(C)(C)O)ccc2S(=O)(=O)N([C@H](C)CO)C[C@H]1C,i

# The list goes on:
SMILES,ID4 binder
Cc1ccc(-c2nc3ccccc3s2)cc1NC(=O)COc1ccccc1C,i
O=C(OCc1nc2ccccc2s1)c1ccco1,i
COC(=O)c1ccc(COc2ccc3c(c2)oc(=O)c2cc(OC)ccc23)o1,i
COc1ccccc1CC(=O)Nc1ccc(-c2noc(-c3cc(OC)c(OC)c(OC)c3)n2)cc1,i
COC(=O)C[C@H]1C[C@H]2c3cc(N(C)C)ccc3O[C@H]2[C@@H](CO)O1,i
C[C@@H]1CN([C@H](C)CO)C(=O)c2cc(C#Cc3cccc(F)c3)cnc2O[C@@H]1CN(C)CC1CCCC1,i
O=C(CCn1c(=S)[nH]c2c(sc3ccccc32)c1=O)NC1CCCCC1,i
COc1cc(C2NC(=S)NC(C)=C2C(=O)Nc2ccccc2Cl)ccc1OCC#N (stereo not given),i
O=C(Nc1ccc(S(=O)(=O)Nc2ncccn2)cc1)c1c(Cl)cccc1Cl,i
CN(CC(=O)Nc1ccc2c(c1)OCCO2)S(=O)(=O)c1ccc2ccccc2c1,i
Cc1ccc2nc(-c3cccc(NC(=O)COc4ccc([N+](=O)[O-])cc4)c3)oc2c1,i
O=C(Cn1c(=O)oc2ccccc21)Nc1cccc(C(=O)O)c1,i
Cc1cc(C)cc(NC(=O)c2ccc(CSc3nnc(-c4cccc([N+](=O)[O-])c4)n3C)cc2)c1,i
C[C@H]1CN([C@@H](C)CO)C(=O)c2cc(-c3ccccc3)cnc2O[C@H]1CN(C)C(=O)c1cccc(F)c1,i
Cc1ccc(-c2cnc3c(c2)C(=O)N([C@H](C)CO)C[C@@H](C)[C@@H](CN(C)CC2CCOCC2)O3)cc1,i
COc1ccc(NC(=O)CSc2nc(-c3ccccc3)c(-c3ccccc3)o2)cc1OC,i
Cc1ccc(NC(=O)C(C)NS(=O)(=O)c2ccc(F)cc2)cc1Cl (stereo not given),i
CC(C)CC#Cc1ccc2c(c1)O[C@@H](CN(C)S(=O)(=O)c1cccc(F)c1)[C@@H](C)CN([C@@H](C)CO)S2(=O)=O,i
COc1ccc(NC(=O)c2ccco2)cc1NC(=O)c1cccnc1,i
C[C@@H]1CN([C@H](C)CO)C(=O)c2cc(NC(=O)Cc3ccccc3)ccc2O[C@H]1CN(C)C,i

# Ordered by SMILES length (descending): some entries from above.
SMILES,ID4 binder
C[C@H]1CN([C@@H](C)CO)S(=O)(=O)c2ccc(-c3ccc(F)cc3)cc2O[C@H]1CN(C)Cc1ccccc1C(=O)O,i
C[C@@H]1CN([C@H](C)CO)S(=O)(=O)c2ccc(-c3cccnc3)cc2O[C@H]1CN(C)Cc1ccccn1,i
CO[C@@H](CN(C)C(=O)C1CCOCC1)[C@H](C)CN([C@H](C)CO)S(=O)(=O)c1ccccc1,i
CN(CC(=O)Nc1ccc2c(c1)OCCO2)S(=O)(=O)c1ccc2ccccc2c1,i
Cc1cc(C)cc(NC(=O)CSC2CC(=O)N(c3ccc(F)cc3)C2=O)c1 (stereo not given),i

# Remaining list, next part
SMILES,ID4 binder
Cc1cc(OCC(=O)Nc2ccccc2C(N)=O)c(C(C)C)cc1Br,i
O=C(COc1ccc(Cl)cc1Cl)Nc1cccc(-c2nnc(-c3ccccc3)o2)c1,i
O=C1c2ccccc2C(=O)N1CCCc1nc(-c2cccc([N+](=O)[O-])c2)no1,i
Cc1ccccc1-c1cnc2c(c1)C(=O)N([C@H](C)CO)C[C@@H](C)[C@H](CN(C)C(=O)CC1CC1)O2,i
CC(=O)n1c2c(c3ccccc31)OC(N)=C(C#N)C2c1ccc(C(C)C)cc1 (stereo not given),i
CCCN(C)C[C@H]1Oc2ncc(-c3cccnc3)cc2C(=O)N([C@@H](C)CO)C[C@H]1C,i
COc1ccc(Cl)cc1NC(=O)CN(c1ccc(Cl)c(C(F)(F)F)c1)S(C)(=O)=O,i
CNC[C@@H]1Oc2cc(C#Cc3ccncc3)ccc2S(=O)(=O)N([C@H](C)CO)C[C@@H]1C,i
C[C@H](CO)N1C[C@H](C)[C@H](CN(C)C(=O)C2CCC2)Oc2ncc(C#Cc3ccccc3F)cc2C1=O,i
O=C(Cc1ccccc1)N[C@H]1C=C[C@@H](CC(=O)N2CCOCC2)O[C@@H]1CO,i
CN(C)C(=O)C[C@H]1C=C[C@H](NC(=O)c2ccc(F)cc2)[C@H](CO)O1,i
C[C@@H]1CN([C@@H](C)CO)C(=O)c2cc(C#CCN(C)C)cnc2O[C@@H]1CN(C)S(=O)(=O)c1cn(C)cn1,i
C[C@@H]1CN([C@H](C)CO)C(=O)CCCn2nncc2CO[C@@H]1CN(C)Cc1cccc(C(F)(F)F)c1,i
NC(=O)CSc1oc(-c2cccs2)nc1S(=O)(=O)c1ccccc1,i
C[C@H]1CN([C@@H](C)CO)C(=O)c2cc(NC(=O)C3CC3)ccc2O[C@H]1CN(C)CC1CCCCC1,i
O=C(C[C@@H]1C=C[C@H](NC(=O)CC2CC2)[C@@H](CO)O1)NCC(F)(F)F,i
O=C(CSc1nnc(-c2ccncc2)n1-c1ccc(Cl)cc1)Nc1ccc(C(=O)O)cc1,i
COC(=O)c1c(NC(=O)Nc2ccc(Cl)c(Cl)c2)sc2c1C(C(=O)OC)CC2 (stereo not given),i
Cc1ccc(-c2cnc3c(c2)C(=O)N([C@H](C)CO)C[C@H](C)[C@@H](CN(C)CC2CCOCC2)O3)cc1,i
COc1ccccc1CNC(=O)c1cccc(NC(=O)c2ccccc2)c1,i

# Pulled one by one from the list above (two):
SMILES,ID4 binder
O=C(C[C@@H]1C=C[C@H](NC(=O)CC2CC2)[C@@H](CO)O1)NCC(F)(F)F,i
CN(C)C(=O)C[C@H]1C=C[C@H](NC(=O)c2ccc(F)cc2)[C@H](CO)O1,i

# (cont.)
SMILES,ID4 binder
C/C=C/c1cnc2c(c1)C(=O)N([C@H](C)CO)C[C@H](C)[C@@H](CN(C)Cc1ccccc1)O2,i
C[C@H](CO)N1C[C@H](C)[C@H](CN(C)C(=O)Nc2ccc(F)cc2)Oc2cc(/C=C/c3ccccc3)ccc2S1(=O)=O,i
O=S(=O)(Cc1ccc2nonc2c1)c1cccs1,i
C[C@@H]1CN([C@H](C)CO)S(=O)(=O)c2ccc(-c3cccc(C#N)c3)cc2O[C@@H]1CN(C)C(=O)c1cccnc1,i
O=C(Nc1c(Cl)cc(Cl)cc1C(=O)NCc1cccnc1)c1cccc([N+](=O)[O-])c1,i
O=C(CSc1n[nH]c(-c2ccccc2)n1)Nc1sc2c(c1C(=O)Nc1ccccc1)CCCC2,i
O=C(C[C@@H]1CC[C@H](NC(=O)C2CCC2)[C@H](CO)O1)NCCCN1CCOCC1,i
CNC[C@H]1Oc2ncc(-c3ccc(OC)cc3)cc2C(=O)N([C@H](C)CO)C[C@H]1C,i
C/C=C/c1cnc2c(c1)C(=O)N([C@H](C)CO)C[C@H](C)[C@@H](CN(C)C(=O)Nc1ccccc1F)O2,i
COc1ccc(C#Cc2ccc3c(c2)[C@]2(C(=O)N3)[C@H](c3ccc(O)cc3)N3[C@H](c4ccccc4)[C@H](c4ccccc4)OC(=O)[C@H]3[C@@H]2C(=O)N2CCc3cc(OC)c(OC)cc3C2)cc1,i
CC(=O)N(C)C[C@H]1Oc2ncc(-c3cccc(F)c3)cc2C(=O)N([C@H](C)CO)C[C@H]1C,i
C[C@@H]1CN([C@H](C)CO)C(=O)c2cc(C3=CCCC3)cnc2O[C@H]1CN(C)C(=O)C1CCCCC1,i
COc1cc2c(cc1NC(=O)CCCN1C(=O)c3ccccc3C1=O)oc1ccccc12,i
CCOC(=O)c1c(NC(=O)C(C)N2C(=O)c3ccccc3C2=O)sc2c1CCC(C)C2 (stereo not given),i
CCC(Sc1nnc2c(n1)[nH]c1ccccc12)C(=O)Nc1cccc2ccccc12 (stereo not given),i
